Furin inh: inhibitors of human furin. purified furin, fluorogenic substrate cleavage. AID 463115. 220,000 compounds, 0.061% hits. inhibition, % at 30 µM; in the data active = inhibition above about 25%; also: inactives centre near -15
Cl transport mod: modulates chloride dependent transport by human KCC2. KCC2 cells, thallium flux FluoZin-2 fluorescence. Q9H2X9. B-score of Tl+ flux slope (higher = more flux/activation; lower = inhibition) at 10 µM. 190,000 compounds, 2.2% hits;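 active = thallium flux slope and its plate-corrected score both differing from the plate sample mean at a set confidence after two filtering rounds, in either direction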;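 also: slope of fluorescence scaled to starting intensity during 10 to 20 s after thallium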
eIF4E-4G inh: eIF4E/eIF4G interaction inhibition in translation initiation. TR-FRET eIF4E-eIF4GI(517-606) binding, 2 h. inhibition, % at 21.7 µM. 220,000 compounds, 0.37% hits. AID 782. P63073+Q04637;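 also: 0% = full FRET control wells and 100% = background wells lacking eIF4GI fragment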
Rad51 HR inh: blocks human Rad51 in homologous recombination; Q06609; hRad51 DNA strand exchange, fluorescence dequenching; inhibition, % at 10 µM; 200,000 compounds, 0.085% hits; AID 1385;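 active = inhibition above 40% at the single screening dose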;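 also: 0% = DMSO control wells and 100% = blanks with heterologous ssDNA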
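Test system: preformed human Rad51 ssDNA filaments; also added: Donor/quencher-labelled 47-bp dsDNA substrate; doses: 10 µM final, single point; times: 37 °C 15-min filament assembly, 30-min compound preincubation, 15-min exchange; detection: FRET fluorescence dequenching, excitation 485 nm, emission 520 nm; read-out basis: Fluorescence-based percent inhibition, control- and blank-normalised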
EBV gp42 inh: EBV gp42 inhibition. Q1HVG2. Fluorescence polarization binding assay, mP read-out. AID 1085. 220,000 compounds, 0.42% hits. inhibition, % (tested at 21.74 µM); in the data active = inhibition above about 50%
NCF1 inh: p47phox (human) inhibition; P14598; p47phox/p22phox peptide binding, fluorescence polarization, 2 h; inhibition, % at 24.7 µM; 220,000 compounds, 0.53% hits;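 also: 0% = p47phox with labelled peptide and 100% = labelled peptide alone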
Target sequence (P14598 whole entry, looked up): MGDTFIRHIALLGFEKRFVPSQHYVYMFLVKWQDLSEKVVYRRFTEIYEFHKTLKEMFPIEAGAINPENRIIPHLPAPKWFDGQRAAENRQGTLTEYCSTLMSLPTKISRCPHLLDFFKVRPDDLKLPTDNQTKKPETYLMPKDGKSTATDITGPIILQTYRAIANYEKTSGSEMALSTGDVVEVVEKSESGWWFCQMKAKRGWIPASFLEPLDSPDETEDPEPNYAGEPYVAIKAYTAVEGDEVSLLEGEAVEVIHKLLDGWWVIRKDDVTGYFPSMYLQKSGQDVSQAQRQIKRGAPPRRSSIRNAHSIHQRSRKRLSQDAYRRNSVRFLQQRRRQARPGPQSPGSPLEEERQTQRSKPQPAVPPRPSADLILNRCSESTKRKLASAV
14-3-3 Bad PPI: disrupts binding of bovine 14-3-3 zeta to phospho-Bad peptide; 220,000 compounds, 0.71% hits; AID 781; TR-FRET 14-3-3zeta/Dy647-pBad peptide displacement, 1 h; P63103; inhibition, % at 21.7 µM;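 active = inhibition above about 70%, limit read from the data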;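 also: 0% = full 14-3-3 plus peptide FRET controls and 100% = background without 14-3-3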
An asterisk follows results filed as active; . = not tested or not shown; & = joins results of further samples; [ ] = dose if it differs, or a comment.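 The calls were made as follows, unless noted: active = inhibition above about 30% (limit read from the data); inactive = the rest.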 A portion of the library; count on the stated rates, not on these rows.

SMILES	Furin inh	Cl transport mod	eIF4E-4G inh	Rad51 HR inh	EBV gp42 inh	NCF1 inh	14-3-3 Bad PPI
O=C(O)CC(O)C(=O)O (stereo not given)	0	.	2	4	-8	-8	-1
C[C@]12CC[C@@H]3c4ccc(O)cc4CC[C@H]3[C@@H]1CC[C@@H]2O	-17	0.3	2	-7	-7	4	-2
CC1CCc2cc(F)cc3c(=O)c(C(=O)O)cn1c23 (stereo not given)	-5	-1.7	2	-3	-6	12	0
NC12CC3CC(CC(C3)C1)C2	-10	-0.081	1	-1	1	15	8
O=C(CN1C(=O)CSc2ccccc21)N1CCc2ccccc21	-20[20 µM]	-4.9*	-4	.	-15	-3	6
O=C(N/N=C/c1ccccc1[N+](=O)[O-])c1ccc2nc[nH]c2c1	-17	-1.5	-5	24	-8	-3	6
C[C@@H]1C[C@H]2[C@@H]3CCC4=CC(=O)C=C[C@]4(C)[C@@]3(F)[C@@H](O)C[C@]2(C)[C@@]1(O)C(=O)COP(=O)(O)O	-8	0.8	1&-1[fluorescence artefact?]	-2	-18&-3	3&-10	5&-3
Cc1ccc(C(=O)n2cnnc2N)cc1	-14[20 µM]	0.41	6	3	9	-6	-5
COc1ccc(C(=O)n2nc(-c3ccco3)nc2N)cc1OC	-19	0.87	-1	4	5	-3	-8
COc1c2occc2cc2ccc(=O)oc12	-20[20 µM]	.	-8	0	-19	-9	-5
Cc1cccc(C(=O)n2cnnc2N)c1	-12	1.7	1	5	-3	2	-12
O=C(Oc1oc(-c2ccco2)nc1C=Nc1ccccc1)c1ccoc1	-15	-0.055	4	5	-2	-4	18
CCCC(=O)n1nc(-c2ccco2)nc1SCc1ccccc1	-26	-0.29	-4	-1	-30	0	12
CN(C)CC/C=C1/c2ccccc2Sc2ccc(Cl)cc21	-15	1.1	-2	-1	-14	-15	-4
CCn1c(CNC(=O)Cc2ccc(OC)cc2)nnc1SCC(=O)c1ccccc1	-20	-0.27	5	-14	-14	-6	5
CN(C)CC/C=C1\c2ccccc2COc2ccccc21	-20	-0.46	2	-2	-10	-3	3
COc1ccc2c(c1)c(CC(=O)O)c(C)n2C(=O)c1ccc(Cl)cc1	-4	2.8	-1	0	4	-3	5
CCC(=O)n1nc(-c2cccnc2)nc1NCc1ccccc1	-14	-1.7	3	.	-12	-4	0
CCC(=O)Nc1ccc(C(=O)n2nc(C)cc2C)cc1	-2	.	0[fluorescence artefact?]	4	-16	-5	1[fluorescence artefact?]
Nc1nc(-c2ccco2)nn1C(=O)c1ccccc1Cl	-18	0.86	0	1	-2	1	0

No new results follow: an excerpt of the list.
SMILES	Furin inh	Cl transport mod	eIF4E-4G inh	Rad51 HR inh	EBV gp42 inh	NCF1 inh	14-3-3 Bad PPI
O=C(CN1C(=O)CSc2ccccc21)N1CCc2ccccc21	-20[20 µM]	-4.9*	-4	.	-15	-3	6
O=C(N/N=C/c1ccccc1[N+](=O)[O-])c1ccc2nc[nH]c2c1	-17	-1.5	-5	24	-8	-3	6
C[C@@H]1C[C@H]2[C@@H]3CCC4=CC(=O)C=C[C@]4(C)[C@@]3(F)[C@@H](O)C[C@]2(C)[C@@]1(O)C(=O)COP(=O)(O)O	-8	0.8	1&-1[fluorescence artefact?]	-2	-18&-3	3&-10	5&-3
Cc1ccc(C(=O)n2cnnc2N)cc1	-14[20 µM]	0.41	6	3	9	-6	-5
COc1ccc(C(=O)n2nc(-c3ccco3)nc2N)cc1OC	-19	0.87	-1	4	5	-3	-8
COc1c2occc2cc2ccc(=O)oc12	-20[20 µM]	.	-8	0	-19	-9	-5
Cc1cccc(C(=O)n2cnnc2N)c1	-12	1.7	1	5	-3	2	-12
O=C(Oc1oc(-c2ccco2)nc1C=Nc1ccccc1)c1ccoc1	-15	-0.055	4	5	-2	-4	18
CCCC(=O)n1nc(-c2ccco2)nc1SCc1ccccc1	-26	-0.29	-4	-1	-30	0	12
CN(C)CC/C=C1/c2ccccc2Sc2ccc(Cl)cc21	-15	1.1	-2	-1	-14	-15	-4
CCn1c(CNC(=O)Cc2ccc(OC)cc2)nnc1SCC(=O)c1ccccc1	-20	-0.27	5	-14	-14	-6	5
CN(C)CC/C=C1\c2ccccc2COc2ccccc21	-20	-0.46	2	-2	-10	-3	3
COc1ccc2c(c1)c(CC(=O)O)c(C)n2C(=O)c1ccc(Cl)cc1	-4	2.8	-1	0	4	-3	5
CCC(=O)n1nc(-c2cccnc2)nc1NCc1ccccc1	-14	-1.7	3	.	-12	-4	0
CCC(=O)Nc1ccc(C(=O)n2nc(C)cc2C)cc1	-2	.	0[fluorescence artefact?]	4	-16	-5	1[fluorescence artefact?]

The results go on:
SMILES	Furin inh	Cl transport mod	eIF4E-4G inh	Rad51 HR inh	EBV gp42 inh	NCF1 inh	14-3-3 Bad PPI
CSc1nc(-c2ccco2)nn1C(=O)c1ccccc1	-16[20 µM]	-0.29	5	-1	-21	0	9
NCCCCC(NC(=O)C1CCCN1C(=O)C1CSSCC(N)C(=O)NC(Cc2ccc(O)cc2)C(=O)NC(Cc2ccccc2)C(=O)NC(CCC(N)=O)C(=O)NC(CC(N)=O)C(=O)N1)C(=O)NCC(N)=O (stereo not given)	-7	-0.45	4[fluorescence artefact?]	.	2	0	-6
Nc1nc(-c2ccccc2)nn1C(=O)Cc1ccccc1	-17[20 µM]	-0.8	2	7	5	-6	0
CN1CCC(=C2c3ccccc3C=Cc3ccccc32)CC1	-19	-0.68	1	-4	0	-9	1
O=C(CCc1ccccc1)n1nc(-c2ccco2)nc1SCc1ccccc1	-10	0.034	5	.	1	-6	1

Source: PubChem BioAssay (several laboratories)
